HCMV UL50-53 inh = cytomegalovirus nuclear egress complex inhibition. HTRF UL50-UL53 interaction, normalized percent inhibition. inhibition, % (concentration not given with the values). 0.15% of 190,000 active. AID 1918969;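 active = both replicates at 50% or more, plus weaker picks with an unusually low signal ratio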;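 also: stock transfer was 100 nL into about 20 µL; 0% = negative control wells and 100% = wells with untagged competitor protein; inactives centre near -12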
GIV-Gai inh = inhibitors of GIV GBA-motif binding to rat Galpha-i3 | P08753 | Galpha-i3/FITC-GIV peptide fluorescence polarization, 90 min; hits give low values; scaled: aluminum fluoride 0%, vehicle 100% | 0.42% of 210,000 active | percent of control (FP), % (concentration not given with the values);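 active = replicate mean at 85% of control or lower, very high polarization wells dropped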;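 also: wells of about 15 µL received 100 nL stock; the first replicate is given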
Target sequence (P08753 whole entry, looked up): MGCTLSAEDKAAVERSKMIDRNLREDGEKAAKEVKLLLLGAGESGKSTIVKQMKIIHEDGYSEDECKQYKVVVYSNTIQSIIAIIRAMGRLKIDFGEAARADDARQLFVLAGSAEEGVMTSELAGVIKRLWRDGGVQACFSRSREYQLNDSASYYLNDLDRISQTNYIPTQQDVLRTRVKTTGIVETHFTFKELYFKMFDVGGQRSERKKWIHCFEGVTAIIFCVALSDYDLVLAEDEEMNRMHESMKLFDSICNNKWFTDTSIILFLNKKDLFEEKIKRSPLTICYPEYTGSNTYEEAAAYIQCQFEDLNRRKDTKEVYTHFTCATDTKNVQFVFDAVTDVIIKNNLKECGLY
Sa growth inh = S. aureus growth inhibition; 0.53% of 170,000 active; AID 720641; S. aureus RN4220 growth, OD600, 20 h, 42 °C; hits give low values; relative growth, % (test concentration not listed);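 active = growth at 42 °C up to 50% and 20 or more points under that at 30 °C, or under 10% at both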;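 also: 300 nL library stock went into each well; scaled to the means of positive and negative controls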
Sa growth inh second temp = second read-out of Sa growth inh, no call of its own (marks repeat the call); relative growth, %; measured here: growth at 30 °C;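 optical density after 20 h as mean of two plates; 100% = untreated growth and lower means inhibition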
Starred values were filed as active, the others as inactive; nt = no result given; & = joins results of further samples.

SMILES	HCMV UL50-53 inh	GIV-Gai inh	Sa growth inh	Sa growth inh second temp
C=CCNC1CCS(=O)(=O)C1 (configuration not stated)	-8	104	106	88
N#Cc1nc(-c2ccc(S(=O)(=O)N3CCCC3)cc2)oc1N1CCOCC1	4	104	nt	nt
COc1ccc(Br)cc1CNC(=O)c1ccc2nc(C(C)C)oc2c1	nt	101	75	91
Clc1cccc(-n2nnc(-c3ccccc3)n2)c1	nt	98	97	83
Cc1cc(N2CCC(C(=O)NCCN3CCOCC3)CC2)n2nc(C)c(-c3ccc(Cl)cc3)c2n1	4	107	90	95
O=C(NCc1cccc(F)c1)c1ccc(-n2nnc3cccnc32)cc1	-38	107	nt	nt
Cc1cc(-c2ccc(S(=O)(=O)Nc3cccc(Br)c3)cc2)on1	9	101	117	100
O=C(CCc1cn(Cc2ccc(F)cc2)c2ccccc12)N1CCOCC1	nt	108	134	95
Cn1c(CNS(=O)(=O)c2ccc(F)cc2)nnc1SCc1ccccc1	1	105	110	96
CN(C)c1ccc(C(CNC(=O)c2ccc(Cl)cc2)N(C)C)cc1 (configuration not stated)	-18	101	nt	nt
CC(C)NC(=O)CCn1c(=O)c2ccccc2n2c(=O)[nH]nc12	-33	100	nt	nt
Cc1nc2ccccc2c(=O)n1CC(=O)N(C1CCCCC1)C1CCCCC1	-6	106	115	116
N#Cc1c(N)n(CCNC(=O)c2ccc(Cl)cc2)c2nc3ccccc3nc12	-27	nt	93	95
CC(C)(C)c1ccc(NC(=S)NCc2cccnc2)cc1	6	106	115	97
Cc1sc(NC(=O)c2ccco2)c(C(c2ccccc2)N2CCCC2)c1C (configuration not stated)	-17	nt	80	63
CCN(CC)c1nn2nnnc2c2ccccc12	6	107	96	96
Cn1ccc2cc(S(=O)(=O)N3CCN(C(=O)Nc4ccccc4)CC3)ccc21	13	100	nt	nt
O=C(Sc1nccc(C(F)(F)F)n1)c1ccc(Cl)cc1	-18	95	44	43
Cc1ccccc1NC(=O)CSC1=C(C#N)C(c2ccccc2C)C2=C(CCCC2=O)N1 (configuration not stated)	nt	100	92	72
CN1CCN(NC(=O)COc2ccc(-c3ccccc3)cc2)CC1	4	103	103	98
COC(=O)c1ccc(C2C3=C(CC(c4ccccc4)CC3=O)Nc3onc(C)c32)cc1 (configuration not stated)	-11	101	nt	nt
COc1cc(NC(=O)CCn2nc(C)c(S(=O)(=O)N3CCCCC3)c2C)cc(OC)c1OC	nt	104	106	94
Clc1ccccc1COc1cccc(CNCc2cccnc2)c1	nt	106	107	77
Cc1ccc(NC(=O)N2CCN(c3cc(=O)n4nc(-c5ccccc5C)sc4n3)CC2)cc1C	20	99	nt	nt
COC(=O)C1=C(c2ccccc2)c2cc(Cl)ccc2S(=O)(=O)N1CC(=O)Nc1ccc(Cl)cc1	-38	101	nt	nt
CCOc1cccc2cc(C(=O)Nc3nccs3)c(=Nc3cccc(C(F)(F)F)c3)oc12	nt	106	90	82
Cn1c(=O)c2c(SCC(=O)Nc3nccs3)ccnc2n(C)c1=O	-30	103	83	91
CN(C(=O)CN1CCC(NC(=O)c2ccccc2Br)CC1)C1CCCCC1	2	100	92	76
O=C(NC1CCCC1)c1ccc(CSc2nc3cccnc3n2Cc2ccc(F)cc2)cc1	nt	95	91	85
O=C1/C(=C/c2ccncc2)CCC/C1=C\c1ccncc1	-21	51*	-0.2*	-0.6*

Individual results from the list.
Sa growth inh second temp with CCN(CC)c1nn2nnnc2c2ccccc12 → 96
HCMV UL50-53 inh with COC(=O)C1=C(c2ccccc2)c2cc(Cl)ccc2S(=O)(=O)N1CC(=O)Nc1ccc(Cl)cc1 → -38
Sa growth inh second temp with CN(C(=O)CN1CCC(NC(=O)c2ccccc2Br)CC1)C1CCCCC1 → 76
HCMV UL50-53 inh with CN1CCN(NC(=O)COc2ccc(-c3ccccc3)cc2)CC1 → 4
GIV-Gai inh with CCOc1cccc2cc(C(=O)Nc3nccs3)c(=Nc3cccc(C(F)(F)F)c3)oc12 → 106

Carrying on:
SMILES	HCMV UL50-53 inh	GIV-Gai inh	Sa growth inh	Sa growth inh second temp
Cc1oc(-c2ccccc2Cl)nc1CSc1nncn2c1cc1occc12	nt	112	100	97
Cc1c(C(=O)N2CCOCC2)sc(NC(=O)c2ccc3c(c2)OCO3)c1C#N	-26	107	98	95
Fc1ccccc1C1Nc2ccc3ccccc3c2C2C=CCC21 (configuration not stated)	-6	nt	78	72
CCN(CCCn1c(=S)[nH]c2cc3c(cc2c1=O)OCO3)c1cccc(C)c1	nt	94	106	87
Cc1cccc(N2C(=O)N(c3ccccc3)C3CS(=O)(=O)CC32)c1 (configuration not stated)	-17	99	nt	nt
COc1ccc(OCC(O)Cn2c(NCCN(C)C)nc3c2c(=O)n(C)c(=O)n3C)cc1 (configuration not stated)	13	103	nt	nt
CCC(SC1=Nc2ccccc2C2=NC(CC(C)C)C(=O)N12)C(=O)Nc1ccc2c(c1)OCO2 (configuration not stated)	nt	103	94	73
CCOc1ccc(Nc2oc(-c3ccc(COc4ccc(OC)cc4)o3)nc2C#N)cc1	-10	100	101	87
COc1cc(/C=C/C(=O)OCC(=O)NC2CCCCC2)ccc1O	-42	nt	105	100
CCOC(=O)c1nn(-c2ccc(OC)cc2)c(C(=O)OCC)c1NC(=O)c1c(Br)cnn1C	10	104	103	100
O=c1[nH]c2ccc(S(=O)(=O)N3CCCCC3)cc2o1	-3	nt	116	93
c1ccc(SCc2nnc(-c3ccccc3)o2)cc1	-19	96	100	91
COc1ccc(C(=O)Nc2ccc3c(c2)N(C)C(=O)c2ccccc2S3)cc1OC	nt	104	137	98
Cn1nc(-c2ccccc2)c(/C=N/O)c1Cl	3	100	nt	nt
O=C(Nc1ccccc1C(=O)N1CCCCC1)C1CCCCC1	1	105	100	96
Cc1cc(C)n2nc(SCC(=O)NC3CCCc4ccccc43)nc2n1 (configuration not stated)	3	105	105	76
O=S(=O)(N=Nc1c(O)[nH]c2ccccc12)c1ccccc1	-18	nt	99	91
Cc1cc(Cl)nc(-c2ccccc2)n1	-16	109	91	87
CCCN(CCC)C(=O)CSc1ncccc1C(=O)Oc1ccccc1Cl	nt	101	55	48
CC(C)c1ccc(-n2ccnc2SCC(=O)NC2CCC(O)CC2)cc1 (configuration not stated)	-23	nt	85	93
Cn1ccnc1SCC1CCCCO1 (configuration not stated)	-6	nt	105	114
O=C1CS(=O)(=O)N(Cc2ccccc2)c2ccccc21	-9	103	98	69
CC(C)Cn1c(=O)c2ccccc2n2c(CCC(=O)N3CCN(c4ccccc4)CC3)nnc12	7	109	96	66
N#CCc1nc(-c2ccc(Br)cc2)cs1	10	nt	100	93
COc1ccc(NC(=O)c2cccc(-c3noc(C)n3)c2)c(OC)c1	-13	98	nt	nt
CC(C)CNC(=O)N1CCN(Cc2nc3ccc(Cl)cc3o2)CC1	-7	113	nt	nt
O=C(c1ccco1)N1CCN(Cc2cccnc2)CC1	nt	103	100	85
CCOC(=O)c1c(C)[nH]c(CCC(=O)Nc2cc(Cl)ccc2OC)c1C	nt	105	78	80
Cc1ccc(CNC(=O)C2c3ccccc3Oc3ccccc32)n1C	-36	nt	79	95
COC(=O)/C(C#N)=C(\NCc1ccc(Cl)cc1Cl)SC	-5	nt	99	99

Compounds shown so far with fluorine, in the order listed:
SMILES	HCMV UL50-53 inh	GIV-Gai inh	Sa growth inh	Sa growth inh second temp
O=C(NCc1cccc(F)c1)c1ccc(-n2nnc3cccnc32)cc1	-38	107	nt	nt
O=C(CCc1cn(Cc2ccc(F)cc2)c2ccccc12)N1CCOCC1	nt	108	134	95
Cn1c(CNS(=O)(=O)c2ccc(F)cc2)nnc1SCc1ccccc1	1	105	110	96
O=C(Sc1nccc(C(F)(F)F)n1)c1ccc(Cl)cc1	-18	95	44	43
CCOc1cccc2cc(C(=O)Nc3nccs3)c(=Nc3cccc(C(F)(F)F)c3)oc12	nt	106	90	82
O=C(NC1CCCC1)c1ccc(CSc2nc3cccnc3n2Cc2ccc(F)cc2)cc1	nt	95	91	85
Fc1ccccc1C1Nc2ccc3ccccc3c2C2C=CCC21 (configuration not stated)	-6	nt	78	72

Some of these compounds in order of their number in GIV-Gai inh, high to low.
Structure | GIV-Gai inh | Sa growth inh second temp
CC(C)CNC(=O)N1CCN(Cc2nc3ccc(Cl)cc3o2)CC1 | 113 | nt
Cc1cc(Cl)nc(-c2ccccc2)n1 | 109 | 87
Cc1cc(C)n2nc(SCC(=O)NC3CCCc4ccccc43)nc2n1 (configuration not stated) | 105 | 76
O=C1CS(=O)(=O)N(Cc2ccccc2)c2ccccc21 | 103 | 69
CCCN(CCC)C(=O)CSc1ncccc1C(=O)Oc1ccccc1Cl | 101 | 48
COc1ccc(NC(=O)c2cccc(-c3noc(C)n3)c2)c(OC)c1 | 98 | nt

Part of the list above in order of heavy-atom count, largest number first:
SMILES	HCMV UL50-53 inh	GIV-Gai inh	Sa growth inh	Sa growth inh second temp
Cc1cc(C)n2nc(SCC(=O)NC3CCCc4ccccc43)nc2n1 (configuration not stated)	3	105	105	76
CC(C)CNC(=O)N1CCN(Cc2nc3ccc(Cl)cc3o2)CC1	-7	113	nt	nt
O=C1CS(=O)(=O)N(Cc2ccccc2)c2ccccc21	-9	103	98	69
Cc1cc(Cl)nc(-c2ccccc2)n1	-16	109	91	87

Next entries.
SMILES	HCMV UL50-53 inh	GIV-Gai inh	Sa growth inh	Sa growth inh second temp
Cc1nn(C)c2c1c(-c1ccccc1)cc(=O)n2Cc1ccc(Cl)cc1	nt	99	64	82
O=S(=O)(c1ccccc1)N1CCN(C2CCCCCCC2)CC1	-22	102	95	91
CSc1nc2sc3c(c2c(=O)n1-c1ccccc1C)CCCC3	nt	109	123	96
COc1cc(NS(=O)(=O)c2cc3[nH]c(=O)[nH]c3cc2C)cc(OC)c1OC	nt	103	104	85
O=C1c2ccccc2C(=O)N1CCN1CCOCC1	0&-20	94&99	89	94
O=C(Nc1ccccn1)c1ccccc1Cl	-16	103	87	80
COc1ccc(CNC(=O)c2ccc3c(c2)N(Cc2ccccc2F)C(=O)c2ccccc2S3=O)cc1 (configuration not stated)	-30	102	102	99
CC(C)(C)c1ccc(OC(=O)NC(=O)c2ccc(-c3csnn3)cc2)cc1	0	97	78	90
COc1cc(C=Nn2c(-c3ccc(C)cc3)n[nH]c2=S)ccc1OC(C)=O	-7	100	114	91
Cc1ccccc1CSc1nnc2c(n1)[nH]c1ccccc12	nt	96	105	81
CC(=O)Nc1ccc(NC(=O)c2cc3sccc3n2Cc2ccc(Cl)cc2)cc1	-22	101	106	86
O=C(Nc1cccc(Cl)c1)OC1CCCCC1	-16	nt	40	46
CCN(CC)S(=O)(=O)c1ccc2c(c1)nc(CCC(=O)OCC(=O)c1ccc(Cl)s1)n2C	-11	nt	109	94
O=C(CSc1nc2ccccc2c(=O)n1-c1ccc(F)cc1F)NC1CCCC1	-10	nt	104	99
NC(=O)C1CCN(c2ncnc3sccc23)CC1	-20	nt	93	97
c1ccc(CN2CN(c3nccs3)CN(c3nccs3)C2)cc1	-25	108	98	93
COc1ccc(CNC(=O)CCS(=O)(=O)c2ccc3nc(C)sc3c2)cc1	54	100	nt	nt
O=C(C1CCN(S(=O)(=O)c2cnc[nH]2)CC1)N(CCc1ccccc1)Cc1ccccc1	-24	101&97	99	82
O=C1CSC(=O)N1CCN1C(=O)CSC1=O	nt	98	101	88
COc1ccc(C(C)=O)cc1CSc1nc(Nc2ccc(F)c(F)c2)c2ccccc2n1	nt	104	90	82
COC(=O)c1ccc(COc2ccc(C#N)cc2)o1	14	98	104	89
Cc1ccc(Nc2cc(C(=O)N3CC(C)CC(C)C3)c3ccccc3n2)cc1C (configuration not stated)	nt	100	86	98
CCc1ccc(NC(=O)C(=O)NCCc2csc(-c3cccc(F)c3)n2)cc1	nt	107	100	94
CN(C(=O)COC(=O)c1ccc(-c2ccccc2)cc1)c1ccccc1	12	nt	84	89
CC(C)C(NC(=O)c1ccc2c(c1)OCO2)c1nnc(SCC(=O)NC2CCCCC2)n1C (configuration not stated)	-19	106	101	77
Cc1cccc(-c2nnn3c2nc(NCCCN2CCCC2=O)c2cc(Cl)ccc23)c1	-26	113	nt	nt
COCCNC(=O)CCc1nnc2n(CC(C)C)c(=O)c3sccc3n12	-21	97	nt	nt
C=CCn1c(SCC(=O)Nc2ccc(NC(C)=O)cc2)nc2sc3c(c2c1=O)CCC3	-5	105	nt	nt
CC(C)(C#N)N1CCN(c2ccc(Cl)c(Cl)c2)CC1	-11	100	nt	nt
Cc1cc(NS(=O)(=O)c2cccc(F)c2)n(-c2ccccc2)n1	11	nt	76	99
CCN(CC)S(=O)(=O)c1ccc2c(c1)nc(SCc1csc(NC(C)=O)n1)n2CC	-22	nt	119	80
NC(=O)C1CCN(CC(=O)NCc2ccccc2Cl)CC1	-22	nt	93	89
CC(=O)Nc1ccc(S(=O)(=O)CCC#N)cc1	-2	108	104	86
CC(=O)N=c1scc(-c2ccccc2)n1-c1cccc2ccccc12	-11	nt	101	86
CCC(Sc1nc2nccnc2c(=O)n1Cc1ccc(Cl)cc1)C(=O)NC1CCCCC1 (configuration not stated)	-26	105	118	85
CNC(=O)COc1cccc2c(=O)[nH]ccc12	-1	108	97	100
O=C(O)CN1CC(c2ccccc2)CC1=O (configuration not stated)	-9&-33	92&96	119	91
Cc1cccc(-c2nc(C#N)c(N3CCCCC3)o2)c1	-5	102	99	100
CCN1CCN(Cc2nc3cc(NC(=O)c4ccccc4[N+](=O)[O-])ccc3n2CC)CC1	-100	102	91	86
O=C(CSc1ncn[nH]1)N1N=C2/C(=C/c3ccco3)CCCC2C1c1ccco1 (configuration not stated)	-45	nt	88	96
CCCSc1nc(C)cc(=O)[nH]1	-22	100	82	79
O=C(OCC(=O)N1c2ccccc2Sc2ccccc21)c1ccc(Br)o1	-2	nt	92	91
